High-throughput results from PubChem.
TCR act = T cell receptor activation; primary human leukocytes, anti-CD3, IL-2 HTRF, 48 h; AID 504894; Potency, µM (titrated, usually from 9.22 µM), without a hit: top-dose activation of IL-2 secretion, hits mostly activators; 330,000 tested, under 10 active; further: % of control where 0% means no effect
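1) Mix primary human leukocytes, a-CD3 beads and compound. 2) Incubate 48 hr. 3) Add HTRF IL-2 reagents (a-IL-2-K, a-IL-2-d2).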
MBNL1 CUG block = MBNL1-poly(CUG) RNA binding inhibition. TR-FRET MBNL1-His/biotin-(CUG)12 binding, 665/545 ratio. Potency, µM (top dose mostly 57.5 µM), for inactives: top-dose activity change, negative = inhibition, most hits filed as inhibitors. hit rate 0.036% among 280,000; active means well fitted inhibition curve with a large enough effect in the signal ratio, with a control signal flat, not every such curve was filed as active; inconclusive means small, poorly fitted or top-dose-only effect, or effect the other way, or a change in a side signal; inactive means no such curve, though single readings can be large or run the other way; the % refers to the signal ratio; further: potency means the concentration at half of the fitted maximal effect; on the % scale 0 is the no-effect control and ±100 the full control effect
Target sequence (Q9NR56 whole entry, looked up): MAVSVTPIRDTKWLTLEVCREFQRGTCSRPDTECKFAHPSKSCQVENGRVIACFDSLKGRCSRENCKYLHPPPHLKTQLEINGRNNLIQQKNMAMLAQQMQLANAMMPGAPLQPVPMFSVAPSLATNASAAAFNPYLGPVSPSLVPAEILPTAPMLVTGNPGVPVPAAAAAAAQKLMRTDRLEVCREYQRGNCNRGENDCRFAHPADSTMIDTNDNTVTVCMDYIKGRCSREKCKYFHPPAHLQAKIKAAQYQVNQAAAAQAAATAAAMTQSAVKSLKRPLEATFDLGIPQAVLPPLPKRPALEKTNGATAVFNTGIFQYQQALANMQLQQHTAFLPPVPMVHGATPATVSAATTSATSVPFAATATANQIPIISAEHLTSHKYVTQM
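His-tagged MBNL1 binding to biotinylated (CUG)12 RNA was measured by TR-FRET using terbium anti-His antibody (0.055 ng/ul final) and streptavidin-XL665 (5 nM final). Compounds were titrated 92 nM to 58 uM; 60 min at room temperature.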
TSG101-PTAP inh = blocks PTAP/TSG101 interaction to inhibit HIV-1 budding; Q99816; Fluorescence polarization, FITC-PTAP peptide / Tsg101 binding; Potency, µM (series often up to 115 µM), inactives show at the top dose activity change, negative = inhibition, most hits filed as inhibitors; 340,000 tested, under 10 active; AID 493005; active means well fitted inhibition curve with a large enough effect in the main read-out, with a control signal flat, not every such curve was filed as active; inconclusive means small, poorly fitted or top-dose-only effect, or effect the other way, or a change in a side signal; inactive means no such curve, though single readings can be large or run the other way; further: potency means the concentration at half of the fitted maximal effect; % of control where 0% means no effect
Target sequence (Q99816 whole entry, looked up): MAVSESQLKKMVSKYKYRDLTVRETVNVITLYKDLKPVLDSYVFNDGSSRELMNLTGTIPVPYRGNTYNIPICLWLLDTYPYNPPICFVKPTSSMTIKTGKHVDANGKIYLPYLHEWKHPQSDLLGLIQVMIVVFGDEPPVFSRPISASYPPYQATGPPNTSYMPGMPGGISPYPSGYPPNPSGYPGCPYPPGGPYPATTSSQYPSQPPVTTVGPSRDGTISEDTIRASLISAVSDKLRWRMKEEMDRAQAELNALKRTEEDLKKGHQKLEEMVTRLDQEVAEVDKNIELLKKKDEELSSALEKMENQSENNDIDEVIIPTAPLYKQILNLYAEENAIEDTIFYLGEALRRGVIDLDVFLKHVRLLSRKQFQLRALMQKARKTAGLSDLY
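Tsg101 binding domain (10 uM final) was mixed with compound and a FITC-labeled PTAP peptide (50 nM final) in HEPES pH 7.5 buffer with NaCl, Tween 20, EDTA and TCEP; fluorescence polarization was read after 20 min at r.t.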
TSHR antag = antagonists of human thyroid stimulating hormone receptor; P16473; TSHR-expressing cells, TSH-stimulated cAMP HTRF, 2 h; hits give low values; activity change, negative = inhibition, % at 11.5 µM; hit rate 0.2% among 330,000;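 active means activity change below a set negative limit, meaning inhibition stronger than a set level, cut at about -70% in these data; inconclusive means activity change between two set negative limits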; further: on the % scale 0 is the no-effect control and ±100 the full control effect
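Read-out is FRET at 665 nm (cryptate excitation 337 nm) from a cryptate-tagged anti-cAMP antibody, competed by cell cAMP against cAMP-d2. Compounds are tested on freshly harvested TSHR cells challenged with 4nM TSH (EC80) for 2 hours at 37 deg C.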
Mito fusion yeast = mitochondrial division inhibition or fusion activation | S. cerevisiae fusion-defective mutant growth rescue, CellTiterGlo 48 h | Potency, µM (highest dose often 46.1 µM), for inactives: at the highest dose growth rescue (activation), most hits filed as activators | hit rate 0.23% among 320,000 | AID 485298;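 further: potency means the concentration at half of the fitted maximal effect; % of control where 0% means no effect; nearly all actives have a fitted effect of over 45% in size; temperature-sensitive fusion mutants such as fzo1-1 at 37 °C on non-fermentable ethanol glycerol medium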
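Yeast fusion mutant, YPEG (non-fermentable carbon), compound, 48 h at 37C non-permissive; CellTiterGlo added, 10 min RT, luminescence read. Rescued growth = division inhibition.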
AT treatment = potential ataxia-telangiectasia treatments restoring KAP-1 phosphorylation | AID 485349 | […] A-T fibroblasts, KAP-1 phosphorylation AlphaLISA; neocarzinostatin DNA damage 30 min before lysis | Potency, µM (doses to about 57.5 µM), for inactives: at the top dose activation, usual class: activators | hit rate 0.19% among 320,000; further: potency means the concentration at half of the fitted maximal effect; % of control where 0% means no effect; nearly all actives have a fitted effect of over 45% in size
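ATM-like activity read as KAP-1 phosphorylation via AlphaLISA donor/acceptor antibody pairs after lysis and 6 hr at 25C. Cells were ATM-null patient fibroblasts ([…], hTERT), dosed 60 min, then exposed to the DSB inducer NCS for 30 min.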
ASM inhibitor = human S-ASM enzyme inhibition; P17405; placental ASM, HMU-PC fluorogenic substrate, 60 min; Potency, µM (series often up to 57.5 µM), for the others: top-dose activity change, negative = inhibition, hits mostly inhibitors; hit rate 0.006% among 340,000; AID 504937; further: potency means the concentration at half of the fitted maximal effect
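Fluorogenic HMU-PC substrate (9 uM final) is turned over by placental ASM in 60 min at 37 C after a 10 min compound preincubation. Reaction ended by alkaline stop (pH 10), with fluorescence read at 386/447 nm.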
a7 integrin act = integrin-mediated muscular dystrophy alleviation activation; alpha7betagal myoblasts, beta-gal FDG fluorescence, 48 h; Potency, µM (doses to about 38.3 µM), without a hit: at the top dose activation, most hits filed as activators; hit rate 0.064% among 350,000; AID 624291;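 further: potency means the concentration at half of the fitted maximal effect; 100% = response of the positive control SU9516; nearly all actives have a fitted effect of over 60% in size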
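Alpha7betagal+/- myoblasts (passage 13) were plated 16-24 hr, then exposed to compounds (1:260 dilution of DMSO stock) for 48 hours at 37C. After MPER lysis, β-galactosidase reporter activity was read as FDG fluorescence (ex 480/em 540) after 30 minutes.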
Numbers without * were called inactive; [ ] = remark or other dose. Unless noted, the call rests on the fitted dose curve; in most records, active means well fitted curve in the direction sought with a large enough effect; inconclusive means small, poorly fitted or top-dose-only effect, or another doubt; inactive means no such curve, though single readings can be large; an effect the other way counts as inactive or inconclusive.

`CCc1ccc(N(C(=O)c2ccoc2C)C(C(=O)NC2CCCC2)c2ccc(OC)cc2)cc1` (stereo not given) gave TCR act 0%, MBNL1 CUG block 2%, TSG101-PTAP inh -7%, TSHR antag -16, Mito fusion yeast 0%, AT treatment 6%, ASM inhibitor 1% and a7 integrin act 12%.
`CCOC(=O)C1=C(C(C)=O)C(c2cccnc2)C(C#N)=C(N)O1` (stereo not given) gave TCR act -11%, MBNL1 CUG block 9%, TSG101-PTAP inh -3%, TSHR antag 10, Mito fusion yeast -2%, AT treatment -8%, ASM inhibitor 7% and a7 integrin act -4%.
C=CCn1c(=O)c(C(=O)Nc2ccccc2C(=O)OCC)c(O)c2ccccc21 was read as TCR act -5%, MBNL1 CUG block 1%, TSG101-PTAP inh -2%, TSHR antag -1, Mito fusion yeast 8%, AT treatment 3%, ASM inhibitor 0% and a7 integrin act 39%.
`O=C(Nc1ccccc1)c1ccc(Br)c(S(=O)(=O)Nc2ccccn2)c1` gave TCR act 4%, MBNL1 CUG block -7%, TSG101-PTAP inh -2%, TSHR antag -1, Mito fusion yeast 1%, AT treatment 1%, ASM inhibitor 0% and a7 integrin act -10%.
O=c1nc2n(c3c1oc1ccccc13)Cc1ccccc1-2 was read as MBNL1 CUG block -6%, TSHR antag -39, Mito fusion yeast -6% and AT treatment 0%.
Screening O=C(Nc1ccc(Oc2ccc(NC(=O)Nc3ccccc3Cl)cc2)cc1)Nc1ccccc1Cl returned TCR act -5%, MBNL1 CUG block 0%, TSG101-PTAP inh 3%, TSHR antag 9, Mito fusion yeast -1%, AT treatment 4%, ASM inhibitor 0% and a7 integrin act -18%.
N#CCC(=O)Nc1ccc(C(=O)OCC(=O)c2ccc3c(c2)OCCO3)cc1 was read as TCR act 2%, TSG101-PTAP inh 8%, TSHR antag 9, Mito fusion yeast -11%, AT treatment 1%, ASM inhibitor -4% and a7 integrin act -14%.
Screening O=C(Cc1cccc2ccccc12)Nc1ccc(-c2cc3ccccc3oc2=O)cc1 returned TCR act -2%, MBNL1 CUG block inconclusive, TSG101-PTAP inh -1%, TSHR antag 2, Mito fusion yeast 5%, AT treatment 6% and a7 integrin act 11%.
For Cc1ccc(NC(=O)c2cc(-c3ccc4c(c3)OCO4)on2)cc1 the results were TCR act 12%, MBNL1 CUG block 6%, TSG101-PTAP inh -3%, TSHR antag -9, Mito fusion yeast -4%, AT treatment 6%, ASM inhibitor -4% and a7 integrin act -15%.
`O=C(c1ccccc1)c1ccc(OCC(O)CNCc2ccc(F)cc2)cc1` (stereo not given) gave TCR act 2%, MBNL1 CUG block 10%, TSG101-PTAP inh 1%, TSHR antag 8, Mito fusion yeast -36%[inhibitor], AT treatment -6%, ASM inhibitor 1% and a7 integrin act -66%[inhibitor].
CCN(CC)c1ccc(C(=O)OCC(=O)c2ccco2)cc1 was read as TCR act 9%, MBNL1 CUG block 7%, TSG101-PTAP inh 2%, TSHR antag -5, Mito fusion yeast -3%, AT treatment 9%, ASM inhibitor -2% and a7 integrin act 4%.
For CCOc1ccc(S(=O)(=O)Nc2ccccn2)c2ccccc12 the results were MBNL1 CUG block -4%, TSG101-PTAP inh -6%, TSHR antag 21, Mito fusion yeast 1%, AT treatment 7%, ASM inhibitor 1% and a7 integrin act 11%.
COC(=O)Nc1ccc(S(=O)(=O)NNC(=O)c2c(O)c3ccccc3[nH]c2=O)cc1 was read as TCR act -6%, MBNL1 CUG block -4%, TSG101-PTAP inh 1%, TSHR antag -2, Mito fusion yeast -6%, AT treatment -19%, ASM inhibitor 2% and a7 integrin act 10%.
`C#CCOc1ccccc1CNC1CCN(Cc2ccccc2)CC1` gave TCR act -2%, MBNL1 CUG block 11%, TSG101-PTAP inh 1%, TSHR antag 3, Mito fusion yeast 7%, AT treatment 22%, ASM inhibitor 2% and a7 integrin act 0%.
COCCCNC(=O)c1cccn2c(=O)c3cc4ccccc4cc3nc12 was read as TCR act 4%, MBNL1 CUG block inconclusive, TSG101-PTAP inh inconclusive, TSHR antag 2, Mito fusion yeast 23%, AT treatment -5%, ASM inhibitor 6% and a7 integrin act 9%.

Arranged by molecular weight (largest number first): part of the list above
COC(=O)Nc1ccc(S(=O)(=O)NNC(=O)c2c(O)c3ccccc3[nH]c2=O)cc1 was read as TCR act -6%, MBNL1 CUG block -4%, TSG101-PTAP inh 1%, TSHR antag -2, Mito fusion yeast -6%, AT treatment -19%, ASM inhibitor 2% and a7 integrin act 10%.
Screening O=C(Cc1cccc2ccccc12)Nc1ccc(-c2cc3ccccc3oc2=O)cc1 returned TCR act -2%, MBNL1 CUG block inconclusive, TSG101-PTAP inh -1%, TSHR antag 2, Mito fusion yeast 5%, AT treatment 6% and a7 integrin act 11%.
COCCCNC(=O)c1cccn2c(=O)c3cc4ccccc4cc3nc12 was read as TCR act 4%, MBNL1 CUG block inconclusive, TSG101-PTAP inh inconclusive, TSHR antag 2, Mito fusion yeast 23%, AT treatment -5%, ASM inhibitor 6% and a7 integrin act 9%.
`C#CCOc1ccccc1CNC1CCN(Cc2ccccc2)CC1` gave TCR act -2%, MBNL1 CUG block 11%, TSG101-PTAP inh 1%, TSHR antag 3, Mito fusion yeast 7%, AT treatment 22%, ASM inhibitor 2% and a7 integrin act 0%.
For CCOc1ccc(S(=O)(=O)Nc2ccccn2)c2ccccc12 the results were MBNL1 CUG block -4%, TSG101-PTAP inh -6%, TSHR antag 21, Mito fusion yeast 1%, AT treatment 7%, ASM inhibitor 1% and a7 integrin act 11%.
CCN(CC)c1ccc(C(=O)OCC(=O)c2ccco2)cc1 was read as TCR act 9%, MBNL1 CUG block 7%, TSG101-PTAP inh 2%, TSHR antag -5, Mito fusion yeast -3%, AT treatment 9%, ASM inhibitor -2% and a7 integrin act 4%.

Some of the compounds tested; count on the stated rates, not on these rows.
